Screening results as filed in PubChem BioAssay.
Mtb H37Rv: Confirmatory growth inhibition assay against Mycobacterium tuberculosis H37Rv, potency (AID 1949); most inactive calls were filed without a number and no value below 0 was filed; one-dose inhibition, % at 10 µg/mL; IC50 in µg/mL for titrated hits; 1.6% of 100,000 active;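 active = confirmed in a dose series; inconclusive = about 50% or more but not retested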;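 also: bacteria grown 7 days with compound before Alamar blue readout; 0% = untreated bacteria and 100% = reference antibiotic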
* marks the source's active call; other numbers are inactive results; i = inactive; ? = inconclusive.

SMILES	Mtb H37Rv
CCCNC(=O)c1ccccc1NC(=O)CN1C(=O)c2ccccc2S1(=O)=O	i
CCC(C(=O)N1CCN(c2ccc([N+](=O)[O-])cc2)CC1)c1ccccc1 (stereo not given)	i
COc1ccc(-c2cc(-c3ccc(C)cc3)n[nH]2)c(O)c1	18.6%
COc1ccc(-c2nc(N)n(C(=O)c3ccco3)n2)cc1	i
O=C(NCC1CCCO1)c1cccc(NC(=O)c2ccc(Cl)cc2)c1 (stereo not given)	i
Cc1ccc(C(=O)NCC(C)CN(C)C)cc1[N+](=O)[O-] (stereo not given)	i
CC(=O)Nc1ccc(S(=O)(=O)N2CCN(CCCOc3cc(C)ccc3C)CC2)cc1	?
COc1ccccc1C1NC(=S)NC(c2ccccc2)=C1C(=O)c1ccccc1 (stereo not given)	3.7%
COc1ccc(-c2csc(-c3cc4cccc(OC)c4oc3=O)n2)cc1OC	i
Cc1cc(Br)c2c(c1)C(O)(C1C(=O)Nc3ccccc31)C(=O)N2C (stereo not given)	i
Cc1cc(N2C(=O)CCC2=O)ccc1NC(=O)Cc1ccccc1	i
CC(C)c1ccc(OCC(=O)NC2CC(C)(C)NC(C)(C)C2)c(Br)c1	1.6%
CCOc1cc(C(=O)NC(=S)Nc2nc(-c3ccc(OC)c(OC)c3)cs2)cc(OCC)c1OCC	i
CCC(=O)NC(=S)Nc1ccc(NC(=S)NC(=O)c2ccc(C(C)C)cc2)cc1	i
Cn1c(/C=C/c2ccc3c(c2)OCO3)nc2ccccc2c1=O	i
CCc1c(C)sc(NC(=O)CC#N)c1C#N	i
CCc1ccc(S(=O)(=O)NCc2ccc(OC)c(OC)c2)cc1	i
COc1ccc(NC(=O)c2c(NC(=O)c3ccc([N+](=O)[O-])o3)sc3c2CCC3)cc1	0.26µg/mL*
N#CC1=C(SCc2cccc3ccccc23)NC(=O)C(C#N)C12CCCCC2 (stereo not given)	30.3%
O=C(NC1(C(F)(F)F)NC(=O)N(CCc2ccccc2)C1=O)c1ccco1 (stereo not given)	i
C=CCSc1nnc(-c2ccccc2)n1-c1ccc(F)cc1	i
Cc1c(NC(=O)c2ccc3c(c2)C2C4CCC(C4)C2C(c2ccccc2)N3)c(=O)n(-c2ccccc2)n1C (stereo not given)	i
O=C(O)c1ccc2c3c(cccc13)C(=O)N(c1ccc(Cl)cc1)C2=O	i
CN(C)c1ccc(/C=C/c2nc3ccccc3c(=O)n2CCCO)cc1	4.1%
Cc1cc(Sc2nnc(C)s2)c2ccccc2n1	?

Laid out differently: results already given.
CCc1ccc(S(=O)(=O)NCc2ccc(OC)c(OC)c2)cc1
  Mtb H37Rv = i
CCOc1cc(C(=O)NC(=S)Nc2nc(-c3ccc(OC)c(OC)c3)cs2)cc(OCC)c1OCC
  Mtb H37Rv = i
O=C(NC1(C(F)(F)F)NC(=O)N(CCc2ccccc2)C1=O)c1ccco1 (stereo not given)
  Mtb H37Rv = i
COc1ccc(-c2nc(N)n(C(=O)c3ccco3)n2)cc1
  Mtb H37Rv = i

The main list resumes; the 2 compounds before the break are reprinted first.
SMILES	Mtb H37Rv
CN(C)c1ccc(/C=C/c2nc3ccccc3c(=O)n2CCCO)cc1	4.1%
Cc1cc(Sc2nnc(C)s2)c2ccccc2n1	?
CCOC(=O)c1cc(NS(=O)(=O)c2ccccc2)ccc1Cl	i
CN(C)c1ccc(CNC23CC4CC(CC(C4)C2)C3)cc1	1.43µg/mL*
Cc1cc(OCC(=O)Nc2cccc([N+](=O)[O-])c2C)c(C(C)C)cc1Br	i
O=S(=O)(c1ccccc1)N1CCN(Cc2ccccc2C(F)(F)F)CC1	i
COc1ccc(S(=O)(=O)N2CCc3ccccc32)cc1C	4.2%
COc1ccc(N2C(=O)CC3(CCCC3)CC2=O)cc1	i
N#C/C(=C\c1ccc(-c2ccccc2)o1)C(=O)Nc1ccccc1	i
Cc1ccc(CN2C(=O)C(O)(CC(=O)c3ccco3)c3ccccc32)cc1 (stereo not given)	i
CCn1c(SCC(=O)NC2CCCCC2)nnc1-c1cccs1	i
Cc1onc(-c2c(Cl)cccc2Cl)c1C(=O)NCCC(c1ccccc1)c1ccccc1	14.0%
Cc1nc2ccccc2c(C(=O)O)c1C(=O)Nc1ccccc1	i
O=C(NCCc1ccccc1)c1cccc(Cl)c1	i
CCCS(=O)(=O)N1CCN(C(=O)c2ccc(-c3ccccc3)cc2)CC1	0.6%
Cc1sc2nc(SCC(=O)Nc3ccc4c(c3)OCO4)n(-c3ccccc3)c(=O)c2c1C	i
COc1cccc(NC(=O)CN(Cc2ccc(C)cc2)S(=O)(=O)c2ccc(C)cc2)c1	i
Cc1cc(OCc2c(F)cccc2F)c2c3c(c(=O)oc2c1)CCC3	i
CCC(CC)C(=O)Nc1ccc(-c2ccc(NC(=O)C(CC)CC)c(OC)c2)cc1OC	i
CCOCCCNC(=O)CN(c1cc(OC)ccc1OC)S(=O)(=O)c1ccc(OC)c(OC)c1	i
O=C(Oc1ccc(Br)cc1C(=S)N1CCCC1)c1cccc([N+](=O)[O-])c1	i
CC1(C)Cc2c(sc(NC(=S)NC(=O)c3ccccc3)c2C(N)=O)CO1	i
Cc1cc(Br)cc2c1N(Cc1ccccc1)C(=O)C2=O	10.7%
CCN1CCN(C(=S)c2ccc(Cl)c(Cl)c2)CC1	i
Cc1ccccc1CNC(=O)C1COc2ccccc2O1 (stereo not given)	9.2%
Cc1ccc(-c2ccc(C(=O)NC(=S)Nc3cc(C(=O)O)ccc3C)o2)cc1Cl	4.4%
COc1ccc(CCCc2nnc(SCC(=O)NCc3ccccc3)n2C)cc1	i

In the list so far, 4 have fluorine:
SMILES	Mtb H37Rv
O=C(NC1(C(F)(F)F)NC(=O)N(CCc2ccccc2)C1=O)c1ccco1 (stereo not given)	i
C=CCSc1nnc(-c2ccccc2)n1-c1ccc(F)cc1	i
O=S(=O)(c1ccccc1)N1CCN(Cc2ccccc2C(F)(F)F)CC1	i
Cc1cc(OCc2c(F)cccc2F)c2c3c(c(=O)oc2c1)CCC3	i

New compounds follow:
SMILES	Mtb H37Rv
Cc1cc(C)cc(C(=O)NC(=S)Nc2ccc(-c3cc4ccccc4oc3=O)cc2)c1	i
CC(C)c1ccc(OCC(=O)Nc2ccccc2C(F)(F)F)c(Br)c1	7.9%
Cc1ccc(CSCC(=O)Nc2ccccc2C(N)=O)cc1	i
CCc1sc(NS(C)(=O)=O)nc1-c1ccccc1	i
COc1ccc(F)cc1S(=O)(=O)NCc1cccnc1	i
CCOC(=O)COc1cc2oc(=O)cc(CC)c2cc1Cl	1.43µg/mL*
Cc1cccc(OC(C)C(=O)Nc2ccc(S(=O)(=O)Nc3ncccn3)cc2)c1C (stereo not given)	i
O=C(Nc1ccc2oc(-c3cccc(F)c3)nc2c1)c1cccs1	i
CCOc1ccccc1NC(=O)CSCC(=O)Nc1ccccc1	i
Cc1cccc(C(=O)Nc2ccc(S(=O)(=O)N(C)C)cc2)c1	i
C=C1C2(C(=O)NCc3ccc(F)cc3)CCC(C2)C1(C)C (stereo not given)	i
Cc1cc(NC(=O)c2cnn3c(C(F)F)cc(C4CC4)nc23)no1	i
CC(C)c1ccc(OCC(=O)N2CCCCCC2)c(Br)c1	i
CC(O)Cc1n[nH]c(=S)n1-c1ccccc1 (stereo not given)	i
Cc1ccc(C)c(Oc2coc3cc(OCC(=O)Nc4ccccc4C(C)C)ccc3c2=O)c1	3.1%
CC(C(=O)Nn1cnnc1)c1ccc([N+](=O)[O-])cc1 (stereo not given)	i
CCC(C)c1ccccc1OCCCN1CC(C)OC(C)C1 (stereo not given)	i
Cc1c(C)c2cc(Cl)c(OCC(=O)c3ccc4ccccc4c3)cc2oc1=O	i
CCc1nnc(N2C(=O)c3ccccc3C2(O)c2ccccc2)s1 (stereo not given)	i
COc1ccc(OC)c(C(=O)c2ccc(C(=O)N3CCN(Cc4csc(C)n4)CC3)cc2)c1	i
CC(Oc1ccc(Cl)cc1Cl)C(=O)Nc1ccc(O)cc1C(=O)O (stereo not given)	i
O=C(COc1ccc(Cl)cc1)Nc1nc2c(s1)CCCC2	i
COC(=O)c1ccccc1NC(=O)C(C)NS(=O)(=O)c1ccc(C)cc1 (stereo not given)	i
S=c1[nH]nc(Cc2n[nH]c(=S)n2Cc2ccccc2)n1Cc1ccccc1	i
Cc1cnn(C(=S)NCCc2ccccc2)c1	18.7%
(more compounds)
SMILES	Mtb H37Rv
Cn1c(CNC(=O)c2ccccc2F)nnc1SCC(=O)Nc1ccc(F)c(Cl)c1	i
O=C(COc1ccc(Cl)cc1Br)N1CCN(c2cccc(Cl)c2)CC1	i
O=C(Oc1ccccc1)Oc1ccccc1	i
CCOc1ccccc1OCC(=O)Nc1cccc(C(C)=O)c1	i
Cc1c(Cl)cccc1-n1cnc2ccccc2c1=O	i
Cc1ccc(C)c(C(=O)Nc2ccccc2Br)c1	i
Cc1ccc(C(=O)Oc2ccc(C(=O)COc3ccc4c(C)cc(=O)oc4c3)cc2)cc1	i
COc1ccc(OCC(=O)Nc2nc3ccc(Cl)cc3s2)cc1	4.2%
Cc1ccc(C(=O)Nc2cccc(-c3cn4ccsc4n3)c2)cc1	i
COC(=O)c1ccc(OCCOCCOc2cccc(OC)c2)cc1	i
O=C(CN(c1ccc(Cl)c(Cl)c1)S(=O)(=O)c1ccccc1)Nc1ccc(F)cc1	i
COc1ccc(-c2nnc(-c3ccccc3)n2-c2cccnc2)cc1	i
O=c1cc(-c2ccccc2)nc(SCc2ccc(Br)cc2)[nH]1	2.6%
O=C(CSc1ccc(Cl)cc1)Nc1ccc(N2CCOCC2)cc1	i
O=C(CN(c1ccc2c(c1)OCCO2)S(=O)(=O)c1ccccc1)N1CCc2ccccc2C1	i
Cc1ccc(C)c(OCCCN2CCOCC2)c1Cl	i
O=C(CCCN1C(=O)c2cccc3cccc(c23)C1=O)N1CCN(c2ccccc2)CC1	i
OC(COCc1ccc(Cl)cc1)CN1CCc2ccccc2C1 (stereo not given)	i
C=C(C)COc1ccc2c3c(c(=O)oc2c1C)CCC3	i
COC(=O)C1=CN(CC2CCCO2)C=C(C(=O)OC)C1c1cc2c(cc1Cl)OCO2 (stereo not given)	2.4%
COc1ccc(S(=O)(=O)N2CCC(C(=O)Nc3ccccc3Sc3ccccc3)CC2)cc1	i
O=C(COc1ccccc1Cl)Nc1ccc(NC(=O)c2cccc(Cl)c2)cc1	i
Cc1ccccc1OCC(=O)Nc1ccc(Br)cc1Cl	i
COc1ccc(S(=O)(=O)N2CCN(C3CCC(C)CC3)CC2)cc1 (stereo not given)	i
CC1CCN(S(=O)(=O)c2ccc(C(=O)O)cc2)CC1	i
Further results follow.
SMILES	Mtb H37Rv
COc1ccc(NC(=O)c2sc3cc(-c4ccccc4)ccc3c2Cl)cc1	1.3%
COc1ccc2c(c1)nc(SCC(O)c1ccccc1)n2C (stereo not given)	5.8%
CN(Cc1ccccc1)C(=O)COc1ccc(Cl)cc1Br	1.1%
COc1ccc(N(CC(=O)Nc2cccc(C(C)=O)c2)S(=O)(=O)c2ccc(C)cc2)cc1Cl	2.3%
COc1ccc(CNCc2cc(OC)cc(OC)c2)cc1	i
Cc1cc(Cl)ccc1NC(=O)c1cccc(Br)c1	2.3%
O=C(CNS(=O)(=O)c1ccc(F)cc1)N1CCN(c2ccc(F)cc2)CC1	i
COc1ccccc1-c1nnc2sc(Cc3ccccc3)nn12	i
Cc1c(Cl)cccc1NC(=S)N1CCc2ccccc2C1	i
O=C(CNC(=O)c1ccc(F)cc1)c1ccccc1	2.7%
O=C(CSc1ccccc1)NC1=NCCS1	i
CSc1cccc(NC(=O)CN(Cc2cccc(C)c2)S(=O)(=O)c2ccc(Cl)cc2)c1	9.3%
CC(C)(C)NC(=O)c1nsc(Cl)c1Cl	i
CCc1cc(C(=O)OC)c(NC(=S)Nc2ncn(Cc3cccc(C(F)(F)F)c3)n2)s1	i
CCCC(=O)NC(C)c1nc2ccccc2n1Cc1ccc(Cl)cc1 (stereo not given)	3.4%
COc1ccc(Br)cc1S(=O)(=O)n1cnc2ccccc21	i
CN(c1ccc(C(=O)N2CCN(Cc3ccccc3)CC2)cc1)S(C)(=O)=O	i
COc1ccccc1N1CCN(S(=O)(=O)c2cc(C)c(C)cc2OC)CC1	2.0%
O=S(=O)(/C=C/c1ccccc1)N1CCN(c2ncccn2)CC1	11.6%
Cc1ccc(C(C)NC(=O)c2ccoc2C)cc1C (stereo not given)	i
Cc1ccc(SCCC(=O)Nc2ccc(F)c(Cl)c2)cc1	0.2%
Fc1ccc(CN2CCN(Cc3cccc(F)c3)CC2)cc1	i
O=C(NC(=S)Nc1ccc2oc(-c3ccccc3Cl)nc2c1)c1cncc(Br)c1	26.4%
Cc1ccccc1C(=O)NC(=S)Nc1sc2c(c1C(N)=O)CCC2	i
O=C(c1ccc(I)cc1)N1CCN(C(c2ccccc2)c2ccccc2)CC1	10.8%
(cont.)
SMILES	Mtb H37Rv
CC1CC(OCC(O)CN2CCN(c3ccccn3)CC2)CC(C)(C)C1 (stereo not given)	i
O=c1c2c3c(sc2nc2sc(CN4CCOCC4)cn12)CCCC3	i
CCOc1ccc(C(=O)NC(=S)NCCCN2CCOCC2)cc1	i
COc1cc(OC)cc(N2C(=O)CC(NCCc3ccc(Cl)cc3)C2=O)c1 (stereo not given)	i
CCOc1cc(CN2CCN(S(=O)(=O)c3ccccc3)CC2)ccc1OC	i
COc1cc(NC(=O)CC23CC4CC(CC(C4)C2)C3)ccc1NC(=O)c1cccs1	1.5%
Cc1cccc(NC(=O)CSCc2ccc([N+](=O)[O-])cc2)c1C	i
CCc1nc(C)cn1S(=O)(=O)c1cc(C)c(OC)c(C)c1C	i
CCc1nnc(NC(=O)CSc2nc(-c3cccc(OC)c3)cc(C(F)(F)F)c2C#N)s1	i
Cc1cc(C(C)(C)C)cc(S(=O)(=O)N2CCC(C)CC2)c1C	i
CCOC(=O)CCc1c(C)c2ccc(OCC=C(C)C)c(C)c2oc1=O	1.4%
O=C(NNC(=S)Nc1ccc(Br)cc1Cl)c1ccco1	i

A portion of the library (hit frequency here may not be typical).
